# Mtb hypoxia rep – PubChem AID 1159583; M. tuberculosis hypoxia-regulated fluorescent reporter, fluorescence; fluorescence inhibition, % (test concentration not listed); hit rate 0.1% among 300,000;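 active = 35 to 45% if threefold the growth effect, above 45% if 1.5-fold the growth effect; inactive = the rest, general growth blockers included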;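 note: wells of about 50 µL received 100 nL stock; 0% = vehicle wells and 100% = reference inhibitor wells; whole bacteria with a GFP reporter of the hypoxia response; strong numbers were not always called active; many hits fall short of the cut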
# RN4220 kill – growth inhibition of S. aureus RN4220, primary screen, OD600 | AID 1259311, 2017 | 16 h | inhibition, % (test concentration not listed) | hit rate 0.33% among 330,000;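 active = z-score of -3 or lower and OD600 up to 0.18 on both plates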;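 note: plate controls were untreated cells for no effect and reference antibiotic for full effect; stock transfer was 100 nL into about 80 µL; one replicate is shown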
# Autofluor counter – compound fluorescence in toxin protease inhibitor counterscreen. compound autofluorescence counterscreen, microsphere flow cytometry; stronger effect = higher value. fluorescence intensity (test concentration not listed). hit rate 3.1% among 360,000;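 active = at least 3 SD above the mean of all compounds, about 16000 in these data; inconclusive = too few beads counted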;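 note: 100 nL of 1 mM stock went into each well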
# ugtP null kill – growth inhibition of ugtP-null S. aureus, primary screen, RN4220 ugtP deletion, OD600. 16 h; some inactives read as strong as hits. growth inhibition, % (no concentration beside the values). hit rate 0.54% among 330,000;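 active = z-score under -3 and OD600 up to 0.15 on both plates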;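 note: plate controls were untreated wells for no effect and antibiotic for full effect; wells of about 80 µL received 100 nL stock; the first replicate is given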
# BJeLR lethal – MLPCN primary cell-based screen for lethality selective to Ras in HRASV12 cells; BJeLR (HRASV12) viability, CellTiter-Glo ATP luminescence, 48 h; reference of the scale not given here; inhibition, % (concentration not given with the values); hit rate 0.17% among 300,000; AID 1554, 2009;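 active = replicate mean above 50%; inconclusive = above 50% but judged a plate artefact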;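 note: 50 nL library stock added to about 25 µL; numbers are from one replicate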
# PrP 5UTR inh – inhibition of PrP 5' UTR reporter expression. hit rate 0.35% among 340,000. AID 488862, 2010. cell-based PrP 5' UTR mRNA reporter, plate reader. inhibition, % (test concentration not listed);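 active = every replicate at 50% or more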;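 note: 0 = median of the neutral control wells; tested in H4 reporter cells; numbers are from one replicate; inactives centre near -14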
# Mtb hypoxia rep growth – further read-out of Mtb hypoxia rep, marked with its call; growth inhibition, %; measured here: M. tuberculosis growth (absorbance);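 0% = vehicle and 100% = reference antibiotic; read after six days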
# * = called active by the depositor; ? = inconclusive; nt = no result given.
# Each structure is followed by: Mtb hypoxia rep	Mtb hypoxia rep growth	RN4220 kill	Autofluor counter	ugtP null kill	BJeLR lethal	PrP 5UTR inh
> Cc1nonc1NC(=O)Nc1cccnc1
 : 8	11	1.8	8210	-4	6	-1
> CC(=O)Nc1ccc(S(=O)(=O)N2CCN=C2SCc2ccc(C)cc2)cc1
 : 8	9	8.0	6179	-8	1	-28
> CC(C)(C)c1ccccc1NC(=O)c1ccc2c(c1)SC1=NS(=O)(=O)CCN12
 : 12	4	4.5	5238	8	5	-16
> Cc1ccc(/C=C2\SC(=S)N(N=Cc3cc([N+](=O)[O-])ccc3O)C2=O)o1
 : -3	9	57	nt	12	nt	nt
> CCN(CC)S(=O)(=O)c1cc(NC(=O)C(C)N2CCN(Cc3ccc4c(c3)OCO4)CC2)ccc1C (configuration not stated)
 : 2	1	0.9	9881	-4	-1	4
> COc1ccc(/C=N/NC(=O)c2cccnc2)cc1
 : nt	nt	nt	3673	nt	-1	-13
> COC(=O)C1=C(CS(=O)(=O)c2ccccc2)NC(=O)NC1c1ccccc1 (configuration not stated)
 : 6	-1	2.7	5585	1	6	-68
> Cc1ccc(NC(=O)CN(C)C(=O)c2sc3cc(Cl)ccc3c2Cl)cc1
 : 0	7	-0.2	4493	-2	-8	-8
> C=CCNC(=O)c1onc(CS(=O)(=O)c2cc(C)cc(C)c2)c1C(=O)NCC=C
 : 4	18	-8.5	3903	-14	10	-10
> COc1cc(CN2CCCC(C(=O)Nc3cccc(-n4cccn4)c3)C2)ccc1F (configuration not stated)
 : -7	11	-0.3	6119	4	-6	-16
> Cc1[nH]nc(SCC(=O)NC2CCCC2)c1[N+](=O)[O-]
 : 6	3	2.9	5411	10	9	-15
> COc1ccc(S(=O)(=O)N(C)CC(=O)O)c2ccccc12
 : 1	4	3.8	5639	-3	4	-46
> N#Cc1ccccc1-n1c(N)c(C(=O)N2CCCC2)sc1=S
 : 0	-6	6.2	9655	2	5	nt
> NC(=O)NC(=O)COC(=O)CCCc1c[nH]c2ccccc12
 : nt	nt	0.2	2670	7	-2	-9
> O=C(Cc1ccc(F)cc1)N1CCN(c2ccc(F)cc2)CC1
 : 4	6	2.7	3936	6	2	-20

# Retrieved one by one from above (four):
# Each structure is followed by: Mtb hypoxia rep	Mtb hypoxia rep growth	RN4220 kill	Autofluor counter	ugtP null kill	BJeLR lethal	PrP 5UTR inh
> Cc1nonc1NC(=O)Nc1cccnc1
 : 8	11	1.8	8210	-4	6	-1
> COC(=O)C1=C(CS(=O)(=O)c2ccccc2)NC(=O)NC1c1ccccc1 (configuration not stated)
 : 6	-1	2.7	5585	1	6	-68
> NC(=O)NC(=O)COC(=O)CCCc1c[nH]c2ccccc12
 : nt	nt	0.2	2670	7	-2	-9
> Cc1ccc(/C=C2\SC(=S)N(N=Cc3cc([N+](=O)[O-])ccc3O)C2=O)o1
 : -3	9	57	nt	12	nt	nt

# More compounds
# Each structure is followed by: Mtb hypoxia rep	Mtb hypoxia rep growth	RN4220 kill	Autofluor counter	ugtP null kill	BJeLR lethal	PrP 5UTR inh
> CCOC(=O)c1[nH]c(C(=O)O)c(CCN(CC)CC)c1C
 : 1	-1	8.1	10566	2	-18	-18
> CCN1C(=O)C(O)(C2COC(C)(C)CC2=O)c2cc(Br)ccc21 (configuration not stated)
 : -10	-1	8.4	9516	-20	-1	-18
> Cc1cc(C)c2oc(C(=O)Nc3ccc(S(=O)(=O)N4CCCC(C)C4)cc3)cc(=O)c2c1 (configuration not stated)
 : 1	-1	8.1	2549	-1	5	-14
> Cc1ccc(NC(=O)c2ccc(CSc3nnc(C)s3)cc2)c(C)c1
 : 7	9	-15	2862	-8	-3	-48
> Cc1cn(C2C=CC(CO)O2)c(=O)[nH]c1=O (configuration not stated)
 : nt	nt	3.6	4715	-1	1	-12
> COc1ccc(NC(=O)Nc2ccccc2OC)cc1
 : 7	5	4.6	8262	7	10	-35
> O=C1N/C(=N/N=Cc2ccco2)SC1Cc1ccccc1 (configuration not stated)
 : -2	2	-3.7	nt	-10	nt	nt
> O=C(NCCO)c1nc2ccccc2s1
 : 8	4	4.6	2680	-1	-1	-15
> COc1ccc(-c2cc(C(=O)Nc3ccccc3N3CCOCC3)c3ccccc3n2)cc1OC
 : 10	12	-7.7	3890	3	0	-6
> CC(C)N(C(=O)Cn1c(Cl)nc2ccccc21)C(C)C
 : -4	-3	2.6	4272	4	-3	-5
> CCOc1ncccc1C(=O)NCc1ccccc1
 : 1	-6	2.5	nt	6	-12	nt
> Cc1cc(-c2ccccc2)nc(NN=Cc2cccnc2)n1
 : 11	1	0.5	nt	3	nt	nt
> COc1ccc(OC)c2sc(NC(=O)C3=COCCO3)nc12
 : 4	2	1.7	5429	1	-6	-58
> C[C@H](CO)N1C[C@H](C)[C@@H](CN(C)CC2CC2)Oc2c(NS(=O)(=O)c3ccc(F)cc3)cccc2C1=O
 : 1	2	4.1	2921	7	nt	-2
> C=CCNC(=S)NNC(=O)c1csc(CC)c1
 : 13	7	2.8	2481	6	-3	-7
> N/C(=N\OC(=O)COc1ccc(Cl)cc1Cl)c1ccccn1
 : 10	7	3.5	2043	7	-2	-112
> CCn1c(/C=C/N(C(C)=O)c2ccccc2)[n+](CC)c2ccc(Cl)cc21
 : -7	9	4.3	3603	4	4	-18
> Cc1ccc(C(c2sc3ncnn3c2O)N2CC(C)CC(C)C2)cc1 (configuration not stated)
 : 3	12	-8.1	6230	-6	-1	-14
> NC(=O)CSc1nccn1Cc1ccc2c(c1)OCO2
 : 5	4	2.1	4407	3	-14	-6
> COc1ccc(N(C(=O)C2CSC(=O)C2)C(C(=O)NC(C)(C)C)c2ccncc2)cc1 (configuration not stated)
 : 4	7	-0.6	3237	7	21	-1
> Cn1nnnc1SCc1cc(=O)n2ccsc2n1
 : 15	7	5.8	10388	1	3	-12
> CC(C)(C)NC(=O)Cn1nnc(-c2ccccc2Cl)n1
 : 2	11	2.7	8368	4	-7	-55
> CCCC(CNC)NCC(Cc1ccccc1)NCCCCc1ccccc1 (configuration not stated)
 : 14	15	-0.1	nt	-29	nt	nt
> COc1ccc(CCNc2ncnc3c2nnn3Cc2ccccc2)cc1
 : 10	9	-3.5	4091	3	0	-8
> NC1=NC2(CCCCCC2)n2c(nc3ccccc32)N1
 : 1	15	4.0	6049	-1	6	-10
> COc1cc(Cl)c(C)cc1NC(=O)c1ccc2c(c1)OCO2
 : -5	1	3.5	3963	-1	7	-15
> C[C@H](NC(=O)C1CC(=O)N(c2ccc3c(c2)OCCO3)C1)C(=O)NC1CCCC1 (some centres not stated)
 : 8	6	6.0	5680	5	1	-19
> Cc1cccc(C)c1NC(=O)C(c1ccccc1)N1CCC2(CC1)OCCO2 (configuration not stated)
 : 13	9	-1.4	4830	5	-4	-2
> CCOc1ccc(C(=O)NC2CC3CCCC(C2)N3Cc2ccccc2)cc1 (configuration not stated)
 : 8	12	-2.9	3555	15	0	-19
> O=C(O)c1oc2ccccc2c1CSc1ccc(Cl)cc1
 : 4	3	29	3115	-7	-4	-15
> CCOC(=O)c1cccc2c(=O)c(C(=O)c3ccc(Cl)cc3)c(C(=O)OC)[nH]c12
 : -4	-1	9.4	2732	7	-7	-17
> COc1ccc(OCCC(=O)OCC(=O)NCCC2=CCCCC2)cc1
 : 11	-1	3.8	4339	17	1	-16
> COc1ccc(C(C)=NOCC(=O)N2CC3(C)CC2CC(C)(C)C3)cc1 (configuration not stated)
 : 4	6	4.1	nt	3	nt	nt
> S=c1[nH]nc(COc2ccccc2)n1N=Cc1cccs1
 : -5	-1	6.8	nt	5	nt	nt
> Cc1ccc(CS(=O)(=O)CCC(=O)NCc2ccc(F)cc2)cc1
 : 6	6	2.9	5178	9	3	-20
> CCOC(=O)C(NCc1ccccc1OC)(NC(=O)CC)C(F)(F)F (configuration not stated)
 : nt	nt	0.4	2931	1	3	4
> CCC(/C=C1\Sc2ccc(OC)cc2N1CC)=C\c1sc2ccc(OC)cc2[n+]1CCCS(=O)(=O)[O-]
 : 68*	-49*	36	1738	-18	33	7
> O=C1OC(Nc2ccc(Br)cn2)c2ccccc21 (configuration not stated)
 : nt	nt	30	3407	1	nt	-5
> Fc1ccc(CNCCc2ccc3c(c2)OCO3)cc1
 : 4	3	3.6	3820	8	-2	-32
> CC1(C)NC(=O)N(CC(O)CN(c2ccccc2)S(=O)(=O)c2ccccc2)C1=O (configuration not stated)
 : 7	4	-5.4	3959	3	4	-12
> COc1ccc(CCNC(=O)COC(=O)c2ccc(Br)o2)cc1
 : nt	nt	4.8	3847	3	2	-16
> CC1CCCCC12NC(=O)N(CC(=O)OCC(=O)NC(=O)c1ccccc1)C2=O (configuration not stated)
 : 5	7	1.6	?	1	nt	-11
> Cn1c(=O)c2c(ncn2CC(=O)N2CCN(C(=O)c3ccco3)CC2)n(C)c1=O
 : -7	5	-2.7	4246	-12	4	-20
> O=C(NC(=S)N1CCN(C/C=C/c2ccccc2)CC1)c1c(F)cccc1F
 : -8	-10	-2.1	1915	8	1	-6
> COc1ccccc1N1CCN(C(=O)COc2cccc3ccccc23)CC1
 : -3	3	-0.9	6565	-1	1	-29
> CCOCCc1nn2c(=O)cc(CSCC(=O)Nc3ccccc3)nc2s1
 : 8	-4	6.6	11535	1	4	-2
> CCc1sc(C(=O)N(CCCOC)c2c(N)n(CC(C)C)c(=O)[nH]c2=O)cc1C
 : 3	0	3.2	5164	8	nt	-8
> O=C(Nc1cc(Cl)cc(Cl)c1)N1CCCN(Cc2ccccc2)CC1
 : -2	-5	-3.3	6582	-7	1	-22
> C/C(C=Nn1c(COc2ccccc2)n[nH]c1=S)=C\c1ccccc1
 : 14	4	21	nt	-5	nt	nt
> COc1ccc(C2C=CCN(CC(C)C)CC(=O)N2Cc2ccc(F)cc2)cc1 (configuration not stated)
 : 19	10	8.7	nt	7	nt	nt
> CN1CCN(C(=O)Cc2nc3ccccc3[nH]2)CC1
 : 5	1	2.9	11202	8	3	-5
> CCOC(=O)c1c(NC(=O)c2ccc(S(=O)(=O)N3CCOCC3)cc2)sc2c1CC(C)(C)NC2(C)C
 : 1	5	1.6	4578	-2	5	4
> Cc1ccc(-n2nnc(-c3ccnc4ccccc34)n2)cc1
 : 2	10	6.1	4006	12	-3	-68
> [2H]C([2H])(CCOS(N)(=O)=O)c1ccccc1
 : nt	nt	nt	4054	nt	0	-38
> O=C1C2CC=C(Cl)CC2C(=O)N1c1ncn[nH]1 (configuration not stated)
 : nt	nt	3.8	2637	7	-2	-10
> CCOC(=O)C1(P(=O)(c2ccc(Cl)cc2)c2ccc(Cl)cc2)CCC1
 : -2	2	4.6	3532	-4	7	-19
> CN1CCN(C(=O)C2CCCCC2C(=O)O)CC1 (configuration not stated)
 : nt	nt	-4.5	6000	-2	-7	-16
> CCC(C(=O)OC)n1cnc2c(nnn2-c2ccc(C)cc2)c1=O (configuration not stated)
 : 4	-4	7.0	4885	14	7	10
> C=CCN=C1N[C@@H](c2cccc(C(F)(F)F)c2)C(C(=O)OC)=C(C)N1CC
 : nt	nt	nt	3823	nt	-3	6
> CN(C(=O)C1CCOC1)c1nnc(C2CCOC2)s1 (configuration not stated)
 : nt	nt	0.3	4046	3	6	-1

# New compounds follow:
# Each structure is followed by: Mtb hypoxia rep	Mtb hypoxia rep growth	RN4220 kill	Autofluor counter	ugtP null kill	BJeLR lethal	PrP 5UTR inh
> CN1C2=C(C#N)C(c3ccccc3)(C(F)(F)F)NC(=O)N2c2ccccc21 (configuration not stated)
 : 17	14	2.7	9738	-9	-8	-4
> O=c1ccn(Cc2ccc(F)cc2)c2ccnc(C(F)(F)F)c12
 : 0	-1	1.4	2602	-2	5	-1
> COc1ccc(CN(CC(=O)NC2CCCC2)C(=O)CN2C(=O)COc3ccccc32)cc1
 : 4	-3	-1.8	3115	4	2	-22
> O=Cc1ccc(OCc2nnsc2Cl)cc1
 : 10	5	7.4	4740	-2	5	-23
> CN1C(=O)CC(N2CCN(Cc3ccc(Cl)cc3)CC2)C1=O (configuration not stated)
 : nt	nt	-0.1	2650	7	3	-25
> COc1ccc(OC)c2c1sc(=NC(=O)C1CC1)n2C
 : 6	-7	0.5	3497	6	-1	0
> O=C(/C=C/c1ccccc1Cl)Nc1ccc2c(c1)C(=O)NC2=O
 : 7	10	1.2	4530	-2	-3	-1
> COc1cccc(NC(=O)CN(C)C(=O)CSCC(=O)Nc2ccc(C)cc2)c1
 : 1	2	-0.6	3624	0	nt	-13
> CC(=O)O[C@H]1CC[C@@]2(C)[C@@H](CC[C@H]3[C@@H]4CC[C@H](C(C)O)[C@@]4(C)CC(=O)[C@@H]32)C1 (some centres not stated)
 : nt	nt	nt	3967	nt	9	-14

# Bioassay records from PubChem.
